# D2 PAM – human D2 receptor positive allosteric modulation. potentiation, % (concentration not given with the values). hit rate 0.23% among 360,000. DiscoveRx D2 beta-arrestin cells, luminescence, 90 min; 100% = 57 uM dopamine signal. P14416; active = potentiation of 50% or more; inconclusive = 30% to 50%; inactive = 30% or less;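 note: compound concentration not given in the record; tested on top of an EC20 dose of dopamine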
# Target sequence (P14416 whole entry, looked up): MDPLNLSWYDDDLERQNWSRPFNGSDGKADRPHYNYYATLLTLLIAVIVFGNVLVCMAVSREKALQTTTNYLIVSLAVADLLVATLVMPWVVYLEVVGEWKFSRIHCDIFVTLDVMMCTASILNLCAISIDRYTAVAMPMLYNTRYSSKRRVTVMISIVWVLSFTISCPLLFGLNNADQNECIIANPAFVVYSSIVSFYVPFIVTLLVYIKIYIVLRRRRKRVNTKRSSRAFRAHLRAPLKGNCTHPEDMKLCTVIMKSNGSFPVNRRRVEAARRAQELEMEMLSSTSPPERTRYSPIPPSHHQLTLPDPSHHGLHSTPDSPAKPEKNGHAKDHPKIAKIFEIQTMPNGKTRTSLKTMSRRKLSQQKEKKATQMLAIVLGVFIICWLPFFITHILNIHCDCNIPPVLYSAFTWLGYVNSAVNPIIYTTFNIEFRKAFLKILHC
#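 D2 cells co-treated with compound plus 50 nM dopamine (EC20) for 90 min at 37 deg C to detect potentiation. Beta-arrestin recruitment was read as enzyme-fragment luminescence after 1 h at ambient temperature. Full response was set by 57 uM dopamine.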
# ClpP mod – qHTS Assay for Activators of ClpP; ATP-dependent Clp protease proteolytic subunit (Bacillus subtilis (strain 168)), P80244; purified B. subtilis ClpP, FRET peptide cleavage, 20 min; Potency, µM (series often up to 57.5 µM), for inactives: at the top dose activity change, negative = active; hit rate 1.9% among 340,000; AID 651965, 2013; active = well fitted falling curve with a large enough effect; inconclusive = small, poorly fitted or top-dose-only effect; inactive = no such curve, though single readings can be large or run the other way; note: potency is the fitted concentration of half-maximal effect; the source files actives as falling curves though it sought activators and does not explain the sign; nearly all actives have a fitted effect of over 65% in size; many hits overshoot -100%
# Target sequence (P80244 whole entry, looked up): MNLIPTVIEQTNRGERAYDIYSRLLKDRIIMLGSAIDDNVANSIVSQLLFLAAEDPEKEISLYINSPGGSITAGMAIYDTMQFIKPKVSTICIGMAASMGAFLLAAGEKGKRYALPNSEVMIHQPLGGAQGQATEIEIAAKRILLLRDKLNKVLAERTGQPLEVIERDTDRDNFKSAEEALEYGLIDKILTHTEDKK
#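 Purified B. subtilis ClpP, 10 microg/mL final in Tris/HCl pH8 with KCl, BSA, glycerol and Tween-20, cleaved an Abz/nitrotyrosine-quenched decapeptide. Fluorescence (ex 320, em 430) was read at 0 and 20 min at room temperature. Delta was normalized to 5.8 microM ADEP and DMSO/no-enzyme controls.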
# * marks the source's active call; other numbers are inactive results; ? = inconclusive.
# Values run as follows: D2 PAM, ClpP mod
OC(c1cccc(F)c1)c1ncc(-c2ccc3ccccc3c2)[nH]1 (centres undefined)
    -11, 4.7%
CCNC(=O)C1(C)CCCN(Cc2csc3ccccc23)C1 (centres undefined)
    -18, 0.1%
CCCS(=O)(=O)NC(=O)C1(C)CCN(C(=O)c2sccc2C)C1 (centres undefined)
    -5, -1.7%
Cc1c(C(=O)NCc2ccc3c(c2)OCCO3)sc(=O)n1Cc1ccccc1C(F)(F)F
    -1, 0.2%
CC1(C(=O)NS(=O)(=O)C2CC2)CCCN(C(=O)COc2ccc(Cl)cc2Cl)C1 (centres undefined)
    -17, -1.7%
COCCNc1nc(-c2ccc(OC)cc2C)c2sc(-c3ccccc3)cc2n1
    2, ?
O=C(NCC1CC1)c1ccc(-n2ccnc2)c2ccoc12
    -14, -1.7%
COc1ccc(F)cc1-c1cc(NC(C)=O)c2ncc(-c3cc(OC)c(OC)c(OC)c3)n2c1
    -13, -9.2%
CC(C)NC(=O)C1(C)Cc2c(-c3ccc(N(C)C)cc3)ccnc2O1 (centres undefined)
    1, 5.4%
COCOc1cccc(CN2CCC(C)(Oc3cccc(OC)c3)C2)c1 (centres undefined)
    -13, -8.5%
CC(C)n1c(=O)c2ccccc2n1Cc1cn(Cc2cccs2)nn1
    -3, 5.2%
COc1ccc(C(=O)N2CCC2(C)C(=O)O)cc1C(F)(F)F (centres undefined)
    -4, 0.0%
OC[C@H]1O[C@@H](c2nc(-c3cccc4ccccc34)no2)[C@H](O)[C@@H]1O
    -13, 4.2%
COc1ccc(OCCNC(=O)c2ccc3nc(C)c(N(C)C(=O)CCc4ccccc4)n3c2)cc1
    5, -7.6%
CN1[C@@H](COCc2ccccc2)C=CS1(=O)=O
    -5, 1.8%
COCCNC(=O)C1(C)CCN(C(=O)c2ccc(F)c(C)c2)C1 (centres undefined)
    -6, -1.0%
CCCS(=O)(=O)NC(=O)C1(C)CCN1C(=O)Cc1ccc(-c2ccccc2)cc1 (centres undefined)
    -6, -2.5%
Cc1ccc(S(=O)(=O)N2[C@@H](c3ccc(Cl)cc3)C(C(=O)OC(C)(C)C)=CC[C@H]2c2ccc(Cl)c(Cl)c2)cc1
    -4, -0.1%
COc1ccccc1-c1cccc(-c2nc(C(=O)N3CCCCC3)cc3c2[C@H](CCO)N(S(=O)C(C)(C)C)C3)c1 (some centres undefined)
    19, 0.6%
COc1ccc(-c2nc3ccc(Br)cn3c2Cc2ccccc2)cc1OC
    -12, 3.6%
COCCNC(=O)C1(C)CCCN(Cc2cc(C(F)(F)F)ccc2Cl)C1 (centres undefined)
    -2, -1.5%
CCCNC(=O)C1(C)CCN(C(=O)C2(c3ccc(Cl)cc3)CCCC2)C1 (centres undefined)
    -1, 0.6%
CN1CCN(C2CN(C3CCCCC3)S(=O)(=O)C2)CC1 (centres undefined)
    -5, -0.8%
COc1ccc(C(=O)N2CCC2(C)C(=O)NC(C)C)cc1 (centres undefined)
    -3, -0.5%
CC1(C(=O)NS(=O)(=O)C2CC2)CCCN(C(=O)c2cccs2)C1 (centres undefined)
    -2, 0.2%
Cc1ccc2nc(-c3ccco3)c(Cc3ccccc3)n2c1
    -5, 5.0%
Cc1cc(F)cc(-c2cc(C(=O)NCC3CCCCC3)[nH]n2)c1
    -8, -0.6%
CC(C)NC(=O)C1(C)CCN1C(=O)C/C=C/c1ccccc1 (centres undefined)
    -5, -1.1%
COc1ccc(-c2coc3c(C(=O)NCc4cccs4)cccc23)c(C)c1
    -6, -29%
CCCC(C)(C)C(=O)N1CCC1(C)C(=O)Nc1ccc2c(c1)OCCO2 (centres undefined)
    -6, 0.4%

# 2 of the compounds above, as labelled records.
COc1ccc(OCCNC(=O)c2ccc3nc(C)c(N(C)C(=O)CCc4ccccc4)n3c2)cc1
- D2 PAM: 5
- ClpP mod: -7.6%

Cc1c(C(=O)NCc2ccc3c(c2)OCCO3)sc(=O)n1Cc1ccccc1C(F)(F)F
- D2 PAM: -1
- ClpP mod: 0.2%

# Continued:
# Values run as follows: D2 PAM, ClpP mod
CCc1nc2ccc(C(=O)NCCCN3CCCC3=O)cn2c1N(C)C(=O)COc1ccccc1
    -5, -4.5%
CCCS(=O)(=O)NC(=O)C1(C)CCN(C(=O)c2oc3ccccc3c2C)C1 (centres undefined)
    -3, -0.6%
Fc1ccccc1CNc1nc(NCC2CC2)nc2ccsc12
    -13, -3.6%
CC1(C(=O)Nc2ccc3c(c2)OCO3)CCN1C(=O)CCc1cccs1 (centres undefined)
    -7, 1.5%
C#Cc1cccc(Nc2nc(NCc3ccccc3OC)nc3ccsc23)c1
    -24, 4.5%
CN(C)CCCOc1ccc(-c2cccc3nncn23)cn1
    -2, 4.3%
COc1cccc(-c2cnc3c(NC(C)=O)cc(-c4cc(OC)c(OC)c(OC)c4)cn23)c1
    -3, 1.4%
Cc1cc(Br)cn2c(Cc3ccsc3)c(C3CCCCC3)nc12
    -4, -9.6%
Cc1cc(C)cc(CC(=O)N2CCC2(C)C(=O)NS(=O)(=O)c2cccc(OC(F)F)c2)c1 (centres undefined)
    5, -0.8%
Cc1ccc(NC(=O)C2(C)CCCN2C)cc1C (centres undefined)
    -5, -0.1%

# Pulled by compound from above:
# Values run as follows: D2 PAM, ClpP mod
CN(C)CCCOc1ccc(-c2cccc3nncn23)cn1
    -2, 4.3%
Fc1ccccc1CNc1nc(NCC2CC2)nc2ccsc12
    -13, -3.6%
CC1(C(=O)Nc2ccc3c(c2)OCO3)CCN1C(=O)CCc1cccs1 (centres undefined)
    -7, 1.5%
CCCS(=O)(=O)NC(=O)C1(C)CCN(C(=O)c2oc3ccccc3c2C)C1 (centres undefined)
    -3, -0.6%
COc1cccc(-c2cnc3c(NC(C)=O)cc(-c4cc(OC)c(OC)c(OC)c4)cn23)c1
    -3, 1.4%
Cc1ccc(NC(=O)C2(C)CCCN2C)cc1C (centres undefined)
    -5, -0.1%
Cc1cc(Br)cn2c(Cc3ccsc3)c(C3CCCCC3)nc12
    -4, -9.6%

# (listing goes on)
# Values run as follows: D2 PAM, ClpP mod
COc1ccc(NC(=O)Nc2nnc([C@@H]3C[C@H](O)[C@@H](CO)O3)s2)cc1
    1, -1.1%
COc1ccc(-c2csc(C(C)(O)c3ccc(F)c(F)c3)n2)cc1 (centres undefined)
    -14, -0.4%
CC1(C(=O)NS(=O)(=O)c2ccc(Br)cc2)CCN1C(=O)CCc1ccccc1 (centres undefined)
    -14, -4.4%
CC(=O)Nc1ccc(-c2ccnc3c2CC(C(=O)NCCc2ccccc2)O3)cc1 (centres undefined)
    2, 4.1%
Cc1ccc(S(=O)(=O)NC[C@H]2O[C@@H](n3cnc4c(N)ncnc43)[C@H](O)[C@@H]2O)cc1
    -3, -0.2%
Cc1ccc(-c2cc3nc(NCCc4ccncc4)n(C)c(=O)c3s2)cc1
    -14, 3.8%
COc1cccc(-c2cc3c(c4c2ccn4C)C2CCC3C2)c1 (centres undefined)
    -2, 4.9%
Cc1sc2ccccc2c1CNC[C@H]1O[C@@H](n2ccc(=O)[nH]c2=O)[C@H](O)[C@@H]1O
    -7, -0.6%
O=C(Nc1ccccc1)c1cc(C2CCCN(C(=O)OCc3ccccc3)C2)on1 (centres undefined)
    -12, -0.2%
Clc1cccc(Cc2c(-c3cccc(Br)c3)nc3ccc(Cl)cn23)c1
    0, -15%
O=C(NC(c1ccccc1)c1ccsc1)C1CCN(CCOc2ccc(Cl)cc2Cl)CC1 (centres undefined)
    -16, -1.8%
O=c1ccc2nc3ccccc3sc-2c1
    13, -1.7%
COc1cccc(C(NC(C)=O)c2nc(-c3cccc4cccnc34)cs2)c1 (centres undefined)
    13, 4.5%
CN1CCN(c2ccc(CNC(=O)c3ccc(-c4cnn(C)c4)c4ccoc34)cc2)CC1
    -16, -10%
Cc1ccc(-c2nc3ccc(Cl)cn3c2CC2CCCCC2)cc1
    0, -21%
CC1(C(=O)NCCC(F)(F)F)Cc2c(-c3ccccc3)ccnc2O1 (centres undefined)
    -6, -1.2%
CCc1nc2ccc(C(=O)N(CC)CCN(C)C)cn2c1N(C)C(=O)c1cccc(OC)c1
    -2, -1.7%
CN1OC[C@@H]2CN(S(=O)(=O)c3cc(Cl)cc(Cl)c3)[C@H](c3ccc(-c4ccc(C#N)cc4)cc3)C[C@@H]21
    -1, 1.4%
CC1(C(=O)Nc2cccnc2)Cc2c(-c3ccccc3)ccnc2O1 (centres undefined)
    -6, -11%
OC(c1cccnc1)c1nc(/C=C/c2ccc(C(F)(F)F)cc2)cs1 (centres undefined)
    -15, ?
CC(=O)Nc1ccc(CN(C)c2c(C)nc3ccc(C(=O)N4CCN(C(C)=O)CC4)cn23)cc1
    4, 0.2%
NC(N)=NN=Cc1ccnc2ccccc12
    -13, -16%
Nc1nc2ccccc2n1S(=O)(=O)c1ccc(Cl)cc1
    -6, -3.2%
CCOC(=O)Cc1ccc(Nc2nc(NCCOC)nc3ccsc23)cc1
    -2, -6.3%
CCCNC(=O)C1(C)CCN(Cc2ccc(Cl)c(Cl)c2)C1 (centres undefined)
    -8, 1.0%
CC(=O)C1=CCC(c2ccccc2)N(S(=O)(=O)c2ccc(Cl)cc2)C1 (centres undefined)
    -4, 0.4%
CC1(Cc2ccc(C(F)(F)F)o2)C(=O)Nc2cc(-c3ccc(F)cc3F)ccc21 (centres undefined)
    2, 0.9%
COCCNC(=O)C1(C)CCN(C(=O)c2ccc(SC(F)(F)F)cc2)C1 (centres undefined)
    -6, -2.8%
Nc1ccn([C@@H]2O[C@H](C(=O)N3CCN(c4ccc(Cl)cn4)CC3)[C@@H](O)[C@H]2O)c(=O)n1
    -4, 5.2%
CCC(CC)C(=O)N(C)c1c(C)nc2c(OCc3ccc(F)c(F)c3)cccn12
    -8, 1.6%
CC1(C(=O)NS(=O)(=O)c2ccc(F)cc2F)CCN1C(=O)Cc1ccc(Cl)cc1Cl (centres undefined)
    5, -0.5%
Cc1ccc2nc(-c3ccc(F)cc3)c(Cc3ccccn3)n2c1
    -9, 4.7%
CC(C)NC(=O)C1(C)CCCN1C(=O)c1ccccc1Br (centres undefined)
    -7, 0.2%
Cc1ccc(CNc2nc(NC(C)C)nc3ccsc23)c(C)c1
    -12, -21%
COc1ccccc1Cc1c(-c2cccc(Br)c2)nc2c(C)cc(Br)cn12
    -6, -2.9%
CCc1nc2ccc(C(=O)NCc3ccc(OC)cc3)cn2c1N(CC)CCN(C)C
    -13, -11%
Cc1cccc(C)c1-n1nnnc1C(c1cccs1)N1CCN(C/C=C/c2ccccc2)CC1 (centres undefined)
    -21, -4.6%
Cn1ccc2c(-c3ccc4c(c3)OCCO4)cc3c(c21)C1CCC3O1 (centres undefined)
    -4, 4.4%
CCCCNC(=O)C1(C)CCN1C(=O)c1ccc2c(c1)C(C)(C)CCC2(C)C (centres undefined)
    -13, -0.1%
O=c1cc(CN2CCCCCCC2)c2c(ccc3ccccc32)o1
    -2, 5.0%
COc1ccc(C(NC(=O)C2CCN(CCOc3ccccc3)CC2)c2ccccn2)cc1 (centres undefined)
    -22, -2.4%
CC(=O)Nc1cccc(-c2ccnc3c2CC(C)(C(=O)NCCN(C)C)O3)c1 (centres undefined)
    -3, -21%
CC(C)NC(=O)Nc1nnc([C@H]2C[C@H](O)[C@@H](CO)O2)s1
    -9, -2.3%
CCCCN1CC(N2CCN(C)CC2)CS1(=O)=O (centres undefined)
    -3, 0.4%
CC(C)(C)c1ccc(CC(=O)N2CCC2(C)C(=O)Nc2cnc3ccccc3c2)cc1 (centres undefined)
    4, -9.0%
Cc1ccc(F)c(S(=O)(=O)NC(=O)C2(C)CCN2C(=O)CCC2CCCC2)c1 (centres undefined)
    2, -8.4%
COc1ccc2c(CN3CCCCC3)cc(=O)oc2c1
    -8, 5.2%
COCCNC(=O)C1(C)CCCN(C(=O)c2ccc(F)c(Cl)c2)C1 (centres undefined)
    0, -0.1%
CNc1ncnc2c1ncn2[C@H]1CN(Cc2ccc(OC)cc2)C[C@@H](CO)O1
    -12, -1.3%
CC1(C(=O)NS(=O)(=O)C2CC2)CCN(C(=O)c2c(F)cccc2F)C1 (centres undefined)
    -3, 0.8%

# (list continues)
# Values run as follows: D2 PAM, ClpP mod
O=C(/C=C/[C@H]1O[C@@H](n2cnc3c(NC(=O)c4ccccc4)ncnc32)[C@H](O)[C@@H]1O)NCc1cccc2ccccc12
    -2, -3.6%
COc1ccc(C(C)(O)c2nc(-c3ccc(C)c(C)c3)cs2)cc1 (centres undefined)
    -11, -3.1%
O=S1(=O)CC(N2CCN(CC3CC3)CC2)CN1C1CCCCC1 (centres undefined)
    -12, 4.1%
CCc1nc2ccc(C(=O)N3CCN(C)CC3)cn2c1N(C)CCC(C)C
    -6, -17%
CCOC(=O)C1=CCN(S(=O)(=O)c2ccccc2F)C1c1ccc(C)cc1 (centres undefined)
    -3, -2.5%
CC1(C(=O)NCc2cccc3ccccc23)CCN1Cc1ccc(OC(F)(F)F)cc1 (centres undefined)
    -14, -14%
CC1(C(=O)NS(=O)(=O)c2ccc(Cl)cc2)CCN1C(=O)COc1ccc(Cl)cc1 (centres undefined)
    -4, -0.4%
COc1ccc(-c2csc(C(O)c3cccnc3)n2)cn1 (centres undefined)
    -5, -0.2%

# Only part of the results is shown; count on the stated rates, not on these rows.
